EPAC1 agonist: Validation qHTS for agonist of cAMP-regulated guanine nucleotide exchange factor 3 (EPAC1); Rap guanine nucleotide exchange factor 3 (Homo sapiens), O95398; EPAC1 Rap1b BODIPY-GDP exchange, fluorescence; Potency, µM, without a hit: max response, positive = active, hits mostly activators; 16,000 compounds, 1% hits; active means well fitted activation curve with a large enough effect; inconclusive means small, poorly fitted or top-dose-only effect; inactive means no such curve, though single readings can be large or run the other way;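 further: nearly all actives have a fitted effect of over 70% in size; series mostly up to about 76 or 150 µM; scaled to a cAMP control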
Target sequence (O95398 whole entry, looked up): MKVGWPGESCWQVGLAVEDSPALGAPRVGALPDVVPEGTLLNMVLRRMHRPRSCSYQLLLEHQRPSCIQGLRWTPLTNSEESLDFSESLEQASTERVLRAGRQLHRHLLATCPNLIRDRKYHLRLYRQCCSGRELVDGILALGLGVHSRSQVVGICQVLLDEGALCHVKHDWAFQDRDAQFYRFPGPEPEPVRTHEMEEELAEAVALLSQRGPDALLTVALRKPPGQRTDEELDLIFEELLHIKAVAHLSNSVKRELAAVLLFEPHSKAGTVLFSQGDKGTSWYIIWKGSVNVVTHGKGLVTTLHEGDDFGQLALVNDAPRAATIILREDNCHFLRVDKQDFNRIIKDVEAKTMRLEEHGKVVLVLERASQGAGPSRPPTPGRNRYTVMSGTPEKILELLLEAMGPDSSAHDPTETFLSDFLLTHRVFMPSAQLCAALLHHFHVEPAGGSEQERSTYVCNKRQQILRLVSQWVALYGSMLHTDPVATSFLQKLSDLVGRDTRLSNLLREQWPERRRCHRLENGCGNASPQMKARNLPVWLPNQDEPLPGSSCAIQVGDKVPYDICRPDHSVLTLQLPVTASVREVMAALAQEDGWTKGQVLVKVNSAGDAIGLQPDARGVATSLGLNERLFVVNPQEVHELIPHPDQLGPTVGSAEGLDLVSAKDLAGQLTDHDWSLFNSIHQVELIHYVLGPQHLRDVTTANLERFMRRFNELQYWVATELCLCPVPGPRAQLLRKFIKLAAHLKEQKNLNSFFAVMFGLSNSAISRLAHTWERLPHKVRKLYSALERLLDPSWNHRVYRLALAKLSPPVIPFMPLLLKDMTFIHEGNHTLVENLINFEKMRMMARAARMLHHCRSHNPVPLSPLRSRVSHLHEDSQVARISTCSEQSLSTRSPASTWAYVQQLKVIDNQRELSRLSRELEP
* = called active by the depositor; ? = inconclusive; & = joins results of further samples; [ ] = dose if it differs, or a comment. On the % scale 0 is the no-effect control and ±100 the full control effect; potency means the concentration at half of the fitted maximal effect. A portion of the library; the hit share may differ from the screen's.

EPAC1 agonist	Compound
0%	Cc1cc(C(=O)Nc2ccccc2-c2nc(CNC(=O)c3sc(C)nc3C)c(C)o2)c(C)o1
-18%	Cc1cccc(C)c1OCC(=O)N[C@@H](Cc1ccccc1)[C@@H](O)C[C@H](Cc1ccccc1)NC(=O)[C@H](C(C)C)N1CCCNC1=O
-68%[inhibitor]	COc1ccc(NC(=O)N2CC[C@@]3(CCCN(C(=O)c4csnn4)C3)C2)cc1
-13%	CCCN1CCC(=O)N([C@H](CSc2ccccc2)Cc2ccccc2)CC1
-7%	CCC1CN(CCNC(=O)c2cccnc2OC)Cc2cc(OC)ccc2O1 (stereo not given)
-19%	CC(O)[C@@H](N)C(=O)O (stereo not given in full)
-3%	COc1ccc2c(c1)CCc1cnc(-n3ncc(C(=O)N(C)CC4CCCN(C)C4)c3C)nc1-2 (stereo not given)
0%&3%	CO[C@@H]1[C@@H](O[C@@H]2O[C@H](C)[C@@H](O[C@H]3C[C@@](C)(O)[C@@H](OC(=O)CC(C)C)[C@H](C)O3)[C@H](N(C)C)[C@H]2O)[C@@H](CC=O)C[C@@H](C)[C@@H](O)/C=C/C=C/C[C@@H](C)OC(=O)C[C@H]1O

Among those listed so far, these have an aryl methoxy group:
EPAC1 agonist	Compound
-68%[inhibitor]	COc1ccc(NC(=O)N2CC[C@@]3(CCCN(C(=O)c4csnn4)C3)C2)cc1
-7%	CCC1CN(CCNC(=O)c2cccnc2OC)Cc2cc(OC)ccc2O1 (stereo not given)
-3%	COc1ccc2c(c1)CCc1cnc(-n3ncc(C(=O)N(C)CC4CCCN(C)C4)c3C)nc1-2 (stereo not given)

(list continues)
EPAC1 agonist	Compound
7%	OCc1ccc(-c2nn(Cc3ccccc3)c3ccccc23)o1
?	CC(C)(O)CCC(O)[C@@](C)(O)C1CC[C@]2(O)C3=CC(=O)C4CC(O)C(O)C[C@]4(C)C3CC[C@]12C (stereo not given in full)
16%	NC(C(=O)NC1C(=O)N2C(C(=O)O)=C(Cl)CSC12)c1ccccc1 (stereo not given)
-3%	CN(C)c1ccc(-c2nccc(NCCN3CCOCC3)n2)cc1
-2%	CC(=O)NCC(=O)NCC1Cc2cc(C)cc(-c3ccccn3)c2O1 (stereo not given)
100µM*	O=C(Nc1ccc(Oc2ccc(Cl)cc2)c(Cl)c1)c1cc(I)cc(I)c1O
0%	COc1ccc(-c2cccc3c2OC(CNC(=O)c2ccc4c(c2)OCO4)C3)nn1 (stereo not given)
1%	O=C(c1cnsn1)N1CCOc2ccc(C(O)C(c3ccccc3)c3ccccc3)cc2C1 (stereo not given)
13%	O=C(O)c1cc(=O)[nH]c(=O)[nH]1
?	c1ccc(CNc2ncnc3ccc(-c4ccc5c(c4)OCO5)cc23)cc1
4%	Cc1ccccc1C1(CC(=O)N2CCCCC2C)CC(=O)N(Cc2cccnc2)C1=O (stereo not given)
-16%	COc1cc2c(cc1OC)C(=O)N(C)CC2
?	c1ccc(CNc2nc(-c3cccnc3)nc3ccccc23)cc1
?	N#CC[C@H](Cc1ccccc1)N1CC[C@@H](O)CCC1=O
-72%[inhibitor]	COC(=O)[C@H](CC(C)C)NS(=O)(=O)N(Cc1ccccc1)[C@@H](CC(C)C)C(=O)OC
-89%[inhibitor]	CCCCN1CC[C@H]2C=CC[C@@H](C(=O)NCc3ccc(OC)cc3)[C@H]2C1=O
6%	NCCC[C@H](N)C(=O)O
0%	CC(=O)OCC(=O)[C@@]1(O)CCC2C3CCC4=CC(=O)CC[C@]4(C)C3[C@@H](O)C[C@@]21C (stereo not given in full)
0%	CC(C)c1c(C(=O)NCC2(N3CCCCC3)CCCC2)cnn1-c1nccc(-c2ccco2)n1
-30%	Oc1ccc(Cl)cc1Sc1cc(Cl)ccc1O
15%	CNC[C@@H]1CC[C@@H](N)[C@@H](O[C@H]2[C@H](O)[C@@H](O[C@H]3OC[C@](C)(O)[C@H](NC)[C@H]3O)[C@H](N)C[C@@H]2N)O1
-35%[inhibitor]	O=C(Nc1cccc(F)c1)N1CCC2(CC1)CCN(C(=O)c1cccc(F)c1)CC2
5%	CN(C)c1nc2c(Br)c(Br)c(Br)c(Br)c2[nH]1
23%	CN(C)CC/C=C1/c2ccccc2COc2ccccc21
?	c1cncc(-c2ccc3ncnc(NC4CCNCC4)c3c2)c1
-2%	COc1ccccc1N1CCN(c2nc(CNC(=O)c3cc(C)oc3C)nc3ccccc23)CC1
0%	CC(=O)c1ccc(C(=O)NCC2Cc3cccc(-c4ncccn4)c3O2)cc1 (stereo not given)
5%	CCN(CC)CCN(C)C(=O)c1ccc(-c2ccccc2)nc1N(C)C
-1%	COc1cc(-c2cc(C)c3cccc(OC)c3n2)cc2c1OCCN(C(=O)CC1NC(=O)c3ccccc31)C2 (stereo not given)
-10%	C[C@H]1O[C@H](O[C@H]2[C@H](O)[C@@H](O)[C@@H](O[C@H]3[C@H](O)[C@@H](O)[C@H](O)O[C@@H]3CO)O[C@@H]2CO)[C@H](O)[C@@H](O)[C@@H]1N[C@H]1C=C(CO)[C@@H](O)[C@H](O)[C@H]1O
-11%	COc1cc(=O)n2c(c1C(=O)NC(C)c1ccco1)CCN(C(=O)c1ccnc(Cl)c1)CC2 (stereo not given)
25%	Cc1occc1C(=O)Nc1cccc(-c2nc(CNC(=O)c3cc(-c4ccccc4)n[nH]3)c(C)o2)c1
3%&20%	Oc1cc2c(cc1O)CN(C(=S)NCCc1ccc(Cl)cc1)CCC2
18%&-31%	CN(C)CC/C=C1\c2ccccc2Sc2ccc(Cl)cc21
18%	CCOC(=O)CCC(=O)O[C@H]1C(O[C@@H]2C(C)[C@H](O[C@H]3C[C@@](C)(OC)C(O)C(C)O3)C(C)C(=O)OC(CC)[C@@](C)(O)C(O)[C@H](C)C(=O)C(C)C[C@]2(C)O)OC(C)CC1N(C)C (stereo not given in full)
-4%	COc1cc(=O)n2c(c1C(=O)N(C)Cc1nonc1C)CCN(Cc1ccc(F)cc1)CC2
-34%[inhibitor]	O=c1c(-c2ccccc2)nc2cnc(N3CCNCC3)nc2n1Cc1cccs1
-44%[inhibitor]	C/C1=C2N=C(/C=C3N=C(/C(C)=C4\[N-][C@@](C)([C@@H]5N=C1[C@](C)(CCC(=O)NCC(C)OP(=O)(O)O[C@H]1[C@@H](O)[C@@H](n6cnc7cc(C)c(C)cc76)O[C@@H]1CO)[C@H]5CC(N)=O)[C@@](C)(CC(N)=O)[C@@H]4CCC(N)=O)[C@@](C)(CC(N)=O)[C@@H]\3CCC(N)=O)C(C)(C)[C@@H]/2CCC(N)=O.CC(=O)O.[Co] (stereo not given in full)
15%	Cc1ccc(C(=O)N2CCOc3ccc(CN4CCN(Cc5ccccn5)CC4)cc3C2)cc1
18%	Cc1cnc(CNc2cc(-c3ccccc3C)ncn2)cn1
-7%	Cn1cnc2nc(NCCO)nc(NCc3ccccc3)c21
-4%	C[C@H](CCC(=O)NCC(=O)O)C1CC[C@H]2[C@H]3C(C[C@H](O)[C@]12C)[C@@]1(C)CC[C@@H](O)C[C@H]1C[C@H]3O (stereo not given in full)
32%	Cn1c(=O)c(-c2cccc(Cl)c2)nc2cncnc21
?	CN(C)Cc1ccccc1-c1ccc2ncnc(NC3CCNCC3)c2c1
-27%	O=C1CCN(Cc2ccccc2)S(=O)(=O)c2ccc(F)cc21
-13%	N#Cc1cccc(NC(=O)N2CC3(CCN(C(=O)c4cccc(F)c4)CC3)C2)c1
-42%[inhibitor]	CN1CCN(c2ncc3nc(-c4cc(F)cc(F)c4)c(=O)n(C)c3n2)CC1
9%	CCCCNC(=O)[C@@H]1CC=C[C@@H]2CCN(CCCC)C(=O)[C@@H]21
-15%	CN1CCN(c2ncc3ncc(=O)n(C4CC4)c3n2)CC1
0%	COC(=O)C1CCN(Cc2ccc3c(c2)CN(C(=O)c2ccnn2C)CCO3)CC1
-60%[inhibitor]	COC(=O)CC1C(C)(C)C(OC(C)=O)C2[C@H](OC(C)=O)[C@]34O[C@]2(O)[C@]1(C)C3CC[C@]1(C)C4=CC(=O)OC1c1ccoc1 (stereo not given in full)
-9%	COc1ccc(-c2cn(Cc3ccc([N+](=O)[O-])cc3)nn2)cc1
-12%	CC(=O)/C(=C\c1ccccc1)CC(=O)O
-51%[inhibitor]	O=C(Nc1cccc(F)c1)N1CCC2(CC1)CCN(C(=O)c1cnccn1)CC2
-18%	COc1ccccc1-c1cncnc1N1CCN(C)CC1
12%	NCCCCC(N)C(=O)NC(Cc1ccc(O)cc1)C(=O)NC(CCCCN)C(=O)O (stereo not given)

Next part
EPAC1 agonist	Compound
-36%[inhibitor]	CN(C)c1ccc(C(=C2C=CC(=[N+](C)C)C=C2)c2c(O)c(S(=O)(=O)[O-])cc3cc(S(=O)(=O)O)ccc23)cc1
3%	COc1ccc(-n2c(=O)c(-c3cccs3)nc3cncnc32)cc1
-17%	CC(C)C[C@@H](CO)N1CCN(Cc2ccc(Br)cc2)CCC1=O
-5%&26%	O=C(O)c1ccccc1Nc1cccc(OCc2ccc3ccccc3n2)c1
29%	CC1(C)C(=O)CC[C@@]2(C)C1CC(O)[C@@]1(C)C3=CC(=O)OC(c4ccoc4)[C@]3(C)CCC21 (stereo not given in full)
-12%	O=C1CC[C@H](C(=O)N2CCCCC2)N1
-13%	Cc1ccc(C(=O)Nc2cccc(-c3nc(CNC(=O)c4cccc(C)c4C)c(C)o3)c2)s1
6%	CC12CCC(C1)C(C)(C)C2=O (stereo not given)
-6%	Cc1cccc(CNc2ncncc2-c2ccccc2C(F)(F)F)c1
7%	CCOC(=O)N1CCN(Cc2ccc3c(c2)CN(C(=O)c2cc(-c4ccccc4)on2)CCO3)CC1
-32%[inhibitor]	CCCCC(C)(O)C/C=C/[C@H]1[C@H](O)CC(=O)[C@@H]1CCCCCCC(=O)OC (stereo not given in full)
1%	CCO[C@H](Cc1ccc(OCCc2ccc(OS(C)(=O)=O)cc2)cc1)C(=O)O
-59%[inhibitor]	Cn1cccc1C(=O)N1CCC2(CC1)CCN(c1ccncc1)CC2
-11%	N#Cc1cccc(-c2nc3cnc(N4CCOCC4)nc3n(C[C@H]3CCCO3)c2=O)c1
14%	CC(C)(C)C1CCC(=O)N(CCC#N)CC1 (stereo not given)
2%	O=C1CCC[C@@H]2Cc3nc4ccc(O)cc4cc3[C@@H]3CCN1[C@H]23
-42%[inhibitor]	CS(=O)(=O)N1CCC2(CCCN(Cc3ccccc3)C2)CC1
-12%&-13%	NC(=O)C[C@H](NC(=O)Cc1ccc(O)cc1O)C(=O)O
-52%[inhibitor]	CCCCCCCCCCCC(=O)N(CCO)CCO
-21%	O[C@@H](c1ccccc1)C1CCN(CCc2ccccc2)CC1
-14%	CC(=O)C[C@H]1c2cc(C(F)(F)F)ccc2S(=O)(=O)N1c1ccccc1
-1%	Cc1noc(C)c1-c1ccc2ncnc(N(C)C)c2c1
-1%	O=C(O)c1nc(=O)[nH]c(=O)[nH]1
?	Nc1c(NC/C=C\COc2cc(CN3CCCCC3)ccn2)c(=O)c1=O

Structures shown so far that have a cyano group, in the order listed:
EPAC1 agonist	Compound
?	N#CC[C@H](Cc1ccccc1)N1CC[C@@H](O)CCC1=O
-13%	N#Cc1cccc(NC(=O)N2CC3(CCN(C(=O)c4cccc(F)c4)CC3)C2)c1
-11%	N#Cc1cccc(-c2nc3cnc(N4CCOCC4)nc3n(C[C@H]3CCCO3)c2=O)c1
14%	CC(C)(C)C1CCC(=O)N(CCC#N)CC1 (stereo not given)

(listing goes on)
EPAC1 agonist	Compound
2%	CCCOc1ccc2nc(NC(=O)OC)sc2c1
33%	CCNc1ncc2nc(C)c(=O)n(C[C@H]3CCCO3)c2n1
29%	O=C(c1cccc(Cn2cccn2)c1)N1CCOc2c(cc(-c3csc4ccccc34)cc2OC2CCOC2)C1 (stereo not given)
?	O=S1(=O)CCO[C@H]2CCCC[C@@H]2N1Cc1ccccc1
2%	CC(=O)Nc1c(I)c(C(=O)O)c(I)c(N(C)C(C)=O)c1I
-20%	C[Se]CCC(N)C(=O)O (stereo not given)
-37%[inhibitor]	COc1ncc2nc(-c3ccccc3)c(=O)n(C3CC3)c2n1
-28%	CCCCCc1c2c(cc(O)c1C(=O)O)OC(=O)c1cc(C(=O)CCCC)c(OC)cc1O2

EPAC1 agonist, hit marks shown above
EPAC1 agonist	Compound
100µM*	O=C(Nc1ccc(Oc2ccc(Cl)cc2)c(Cl)c1)c1cc(I)cc(I)c1O

Continued.
EPAC1 agonist	Compound
-2%	O=S1(=O)CCO[C@H]2CCCC[C@@H]2N1Cc1ccccc1F
-2%	CCC1(C2CCN(C(=O)c3cc(C)cc(C)c3)CC2)NC(=O)N(CCc2scnc2C)C1=O (stereo not given)
-1%	O=C1CC2(CCCC2)CC(=O)N1CCCCNC[C@H]1COc2ccccc2O1
-5%	CC(C)(C)C(=O)OCOC(=O)C1N2C(=O)CC2S(=O)(=O)C1(C)C (stereo not given)
-2%	CN(C)C(=O)c1ccc(-c2nccc(NCc3ccccc3)n2)cc1
-16%	O=C(O)C1=C(CSc2nnnn2CS(=O)(=O)O)CS[C@@H]2[C@H](NC(=O)[C@H](O)c3ccccc3)C(=O)N12
6%	COc1cccc(Cn2c(=O)c(-c3ccc(F)cc3)nc3cncnc32)c1
-1%&-11%	CO/N=C(/C(=O)N[C@@H]1C(=O)N2C(C(=O)O)=C(COC(N)=O)CS[C@H]12)c1ccco1
-15%	COc1cc(OC)cc(C(=O)NCC2Cc3cccc(-c4nc(C)cnc4C)c3O2)c1 (stereo not given)
-8%	OCC(O)CS (stereo not given)
-11%	COc1cccc(Nc2ncc3nc(C)c(=O)n(C)c3n2)c1
-10%	COc1ccc(-c2cn(Cc3ccc4ccccc4c3)nn2)cc1
5%	CNC(C)C#Cc1c(-c2cc(OC)c(OC)c(OC)c2)noc1C (stereo not given)
?	COc1ccc(-c2nc3cnc(OC)nc3n(C)c2=O)cc1
10%	OCl
112µM*	CC(c1ccc(N(C)C)cc1)c1ccnc2ccccc12 (stereo not given)
4%	CN(C)C(=O)c1ccc(-c2ccc3ncnc(NCc4cccnc4)c3c2)cc1
